Beta apoptosis: beta cell apoptosis inhibition. 300,000 compounds, 0.8% hits. AID 435005. INS-1E cytokine-induced death, ATP luminescence, 48 h; percent of positive-control rescue, neutral wells zero. protection from apoptosis, % (no concentration beside the values);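 active = all replicates at 75% or more, or half of them and the mean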;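 note: 0% = cytokine-treated negative control wells and 100% = positive control rescue; higher means more ATP so stronger rescue from cytokine killing; wells of about 40 µL received 100 nL stock; the first replicate is given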
Ecoli rRNA inh: inhibitors of bacterial rRNA selective over humanized ribosomes; GFP signal change (wild-type ribosome), % (concentration not given with the values); AID 720706; 350,000 compounds, 1.6% hits; E. coli WT GFP vs humanized-ribosome RFP mutants, fluorescence, 24 h; active compounds read low; DMSO median 0, no signal -100;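 active = significant combined selectivity score with lowered wild-type GFP, culture density cut under 30%, mutant RFP and density less affected; inactive = any of these conditions unmet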; note: one replicate is shown; some compounds called inactive have numbers as strong as hits
T cruzi inh: T. cruzi replication inhibition. T. cruzi beta-gal in NIH3T3, luminescence, 90 h. inhibition, % (concentration not given with the values). 300,000 compounds, 1.4% hits. AID 1885;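 active = mean inhibition across valid replicates above about 55%, limit read from the data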;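 note: signal also drops with host cell toxicity which is not excluded here; 0% = plate median of DMSO wells and 100% = zero luminescence signal; higher percent means less beta-gal luminescence so fewer parasites; stock transfer was 50 nL into about 50 µL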
A1 inh: inhibitors of the anti-apoptotic protein A1, read as caspase activation. 330,000 compounds, 0.066% hits. MEF A1-2A-BIM cells, Caspase-Glo 3/7 luminescence, 3 h; percent of clofoctol response, vehicle zero. caspase activation, % (no concentration beside the values);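 active = over half of replicate activation scores above 10%, or exactly half above 10 with the replicate mean above 10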;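 note: wells of about 30 µL received 50 nL stock; many hits fall short of the cut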
UCH37 DUB inh: human UCH37 deubiquitinating enzyme inhibition. Q9Y5K5. purified proteasome/UCH37, Ub-AMC cleavage fluorescence. inhibition, % (concentration not given with the values). 330,000 compounds, 0.33% hits. AID 588478;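 active = mean of two replicates above 20%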;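 note: 0% = compound-free wells with enzyme and 100% = wells lacking proteasome; stock transfer was 100 nL into about 20 µL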
Target sequence (Q9Y5K5 whole entry, looked up): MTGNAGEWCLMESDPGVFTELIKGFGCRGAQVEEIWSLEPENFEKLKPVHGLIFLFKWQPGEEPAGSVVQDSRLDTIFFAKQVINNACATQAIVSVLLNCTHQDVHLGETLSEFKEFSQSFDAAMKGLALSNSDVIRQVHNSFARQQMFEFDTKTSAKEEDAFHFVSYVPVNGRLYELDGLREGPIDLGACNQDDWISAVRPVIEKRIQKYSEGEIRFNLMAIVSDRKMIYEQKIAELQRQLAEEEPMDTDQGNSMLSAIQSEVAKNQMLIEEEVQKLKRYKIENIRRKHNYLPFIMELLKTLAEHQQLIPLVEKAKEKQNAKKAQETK
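Material: Human UCH37 enzyme supplied as purified proteasome complex | Schedule: 30 min compound-proteasome preincubation then 25 min substrate reaction, room temperature | Detection: AMC fluorescence from Ub-AMC cleavage, excitation 355 nm, emission 460 nm | Benchmarks: Wells without proteasome as full block, compound-free enzyme plus substrate as uninhibited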
FGF22 binding: shifts melting point of recombinant human FGF22. Q9HCT0. recombinant FGF22 thermal shift, SYPRO orange fluorescence; percent of sucrose octasulfate shift, DMSO zero. calls only at 9.99 µM. 340,000 compounds, 1.5% hits;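 active = melting point raised past a set limit in the mean and every replicate; three in four hits are not shown here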
Target sequence (Q9HCT0 whole entry, looked up): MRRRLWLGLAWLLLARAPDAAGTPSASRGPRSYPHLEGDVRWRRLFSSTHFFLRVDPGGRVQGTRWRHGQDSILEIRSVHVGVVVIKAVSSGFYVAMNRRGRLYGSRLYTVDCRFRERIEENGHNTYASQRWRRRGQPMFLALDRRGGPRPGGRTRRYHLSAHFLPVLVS
E coli growth: blocks Escherichia coli growth | OD600 absorbance (no concentration beside the values) | AID 1053175 | OD600, 23 h; active compounds read low | 330,000 compounds, 0.21% hits;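 active = OD600 absorbance below the run mean of sample wells minus 3.6 SD, in any replicate, cut at about 0.56 in these data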;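 note: stock transfer was 300 nL into about 60 µL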
AF4-AF9 inh: inhibitors of human MLL-AF4/AF9 interaction. P42568. AlphaScreen, biotin-AF4 peptide binding to FLAG-AF9. inhibition, % at 10 µM. 350,000 compounds, 0.47% hits. AID 651704;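 active = every replicate reaching a set inhibition limit, whatever the replicate mean, cut at about 25% in these data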;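 note: 0% = plate neutral control median and 100% = total signal loss; the record names both 10 and 1 µM as test concentration; the first replicate is given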
Target sequence (P42568 whole entry, looked up): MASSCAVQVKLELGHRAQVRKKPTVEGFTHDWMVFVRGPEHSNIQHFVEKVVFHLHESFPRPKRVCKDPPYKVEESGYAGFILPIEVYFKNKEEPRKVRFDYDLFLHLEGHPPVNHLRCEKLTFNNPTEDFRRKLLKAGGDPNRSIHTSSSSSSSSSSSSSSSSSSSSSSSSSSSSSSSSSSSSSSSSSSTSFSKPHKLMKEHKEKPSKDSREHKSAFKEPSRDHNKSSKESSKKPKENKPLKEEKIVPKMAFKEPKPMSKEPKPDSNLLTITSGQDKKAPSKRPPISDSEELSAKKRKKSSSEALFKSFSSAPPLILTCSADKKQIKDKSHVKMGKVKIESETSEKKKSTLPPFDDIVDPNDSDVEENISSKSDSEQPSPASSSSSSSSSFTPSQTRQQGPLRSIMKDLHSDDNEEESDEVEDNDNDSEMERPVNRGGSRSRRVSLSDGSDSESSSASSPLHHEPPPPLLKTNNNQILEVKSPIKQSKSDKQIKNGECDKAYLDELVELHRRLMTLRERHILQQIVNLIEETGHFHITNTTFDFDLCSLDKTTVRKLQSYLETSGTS
Ecoli rRNA inh OD600: also measured in Ecoli rRNA inh; calls as there; OD600 change, %; measured here: OD600 growth;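 optical density of the mix in the first replicate; 0 = DMSO median and -100 = no signal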
Ecoli rRNA inh RFP: also measured in Ecoli rRNA inh; calls as there; RFP signal change, %; measured here: RFP humanized mutant strains;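 first replicate; 0 = DMSO median and -100 = no signal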
* = called active by the depositor; i = inactive; · = not tested or not shown.

The opening 2 compounds (preview)
SMILES	Beta apoptosis	Ecoli rRNA inh	Ecoli rRNA inh OD600	Ecoli rRNA inh RFP	T cruzi inh	A1 inh	UCH37 DUB inh	FGF22 binding	E coli growth	AF4-AF9 inh
CCc1nnc(NC(=O)C(NS(=O)(=O)c2ccc3c(c2)OCCO3)C(C)C)s1 (centres undefined)	-3	·	·	·	-4	0.6	1.5	·	0.72	·
O=C1OC(Cc2ccccn2)C(=O)C1=C1SCCS1 (centres undefined)	-3	·	·	·	-7	1.8	12	·	0.64	·

The whole of this part, from the first entry:
SMILES	Beta apoptosis	Ecoli rRNA inh	Ecoli rRNA inh OD600	Ecoli rRNA inh RFP	T cruzi inh	A1 inh	UCH37 DUB inh	FGF22 binding	E coli growth	AF4-AF9 inh
CCc1nnc(NC(=O)C(NS(=O)(=O)c2ccc3c(c2)OCCO3)C(C)C)s1 (centres undefined)	-3	·	·	·	-4	0.6	1.5	·	0.72	·
O=C1OC(Cc2ccccn2)C(=O)C1=C1SCCS1 (centres undefined)	-3	·	·	·	-7	1.8	12	·	0.64	·
CCOc1ccc(NC(=O)CN(C)Cc2cc(=O)n3c(-c4ccccc4)csc3n2)cc1OCC	-6	6	3	4.5	9	0.5	-3.2	i	0.67	1.0
COc1ccc(C2C(C(=O)Nc3ccc4c(c3)OCCO4)c3ccccc3C(=O)N2C)cc1 (centres undefined)	-1	·	·	·	-12	0.1	-0.4	·	0.66	·
COc1ccc(-c2cc(C#N)nc(Oc3ccc(Cl)cc3)n2)cc1	10	8	10	6.3	14	-0.2	-51	i	0.74	3.7
O=C(COC(=O)c1cc2ccccc2o1)NCc1ccco1	·	·	·	·	·	·	1.7	i	0.69	-1.3
Cc1ccc(OCCC(=O)OCC(=O)Nc2cc(C)nn2-c2ccccc2)cc1	-7	10	8	1.8	2	-0.4	-0.8	i	0.73	-2.0
CCN(Cc1ccncc1)C(=O)CSc1ccc2ccccc2c1	-1	-6	-4	-3.6	16	0.5	1.9	i	0.62	-5.3
CCOC(=O)c1sc(NC(=O)/C=C/c2cnn(CC)c2C)c(C(=O)OCC)c1C	10	·	·	·	30	0.1	-119	·	0.73	·
CCN(CC)c1ccc(C(=O)OCC(=O)NC2CCCCC2C)cc1 (centres undefined)	-4	·	·	·	-11	0.8	-0.1	·	0.73	·
CNC(=O)CC(C(=O)O)c1ccc(OCC(C)C)cc1 (centres undefined)	-3	14	18	15	-10	-0.1	3.1	i	0.69	-12
O=C(Nc1ccccc1)c1ccc(S(=O)(=O)N2CCCCC2)cc1	0	8	4	7.9	-12	-0.6	6.5	i	0.71	3.9
COc1cc(/C=N/Nc2ccc(Cl)c(C(=O)O)c2)ccc1OC(=O)c1ccco1	3	-6	-7	-0.8	1	-1.8	·	·	·	-0.2
O=C(NNc1nc2c(F)cccc2s1)C1=COCCO1	3	10	17	-1.8	-7	1.5	1.5	i	0.72	-4.8
Cc1ccccc1S(=O)(=O)Nc1nc2ccccc2nc1N1CCc2ccccc2C1	-13	·	·	·	18	-2.8	-43	·	0.72	·
Cc1cc(Cl)ccc1OCCNC(=S)NC(=O)c1cccnc1	-3	-3	-3	1.2	2	0.0	5.6	i	0.73	-12
O=C(NCc1ccc(F)cc1)N1CCN(S(=O)(=O)c2ccccc2F)CC1	-3	2	4	-0.4	2	0.7	4.7	i	0.64	0.5
Cc1ccc(-n2c(=O)c3c4c(sc3n(Cc3cc(=O)n5ccccc5n3)c2=O)CCC4)cc1C	5	6	13	6.2	13	-0.5	1.6	i	0.7	-54
Cc1ccc(-c2csc(NC(=O)c3ccc(Br)cc3)c2C(=O)O)cc1	0	-19	-23	-3.3	-11	-4.2	·	i	·	-5.3
CCc1ccc(-c2nc(SCC(=O)N(CC)C3CCS(=O)(=O)C3)n[nH]2)cc1 (centres undefined)	-9	-2	5	-1.0	1	-0.5	-0.7	i	0.69	-5.9
CCc1cccc(NS(=O)(=O)c2ccc3c(c2)n(C)c(=O)n3C)c1	26	2	-5	-1.7	-9	-0.4	1.9	i	0.7	-16
O=C1OCCN1C(=O)[C@H]1[C@H](c2ccc([N+](=O)[O-])cc2)C(c2ccccc2)=NN1c1ccc(Br)cc1	·	8	17	-0.2	·	·	4.0	i	0.73	2.2
COc1ccc(CN2CCC(Oc3ccc(C(=O)N4CCCCC4)cc3)CC2)cc1C	-3	0	-5	0.4	7	-0.5	2.7	i	0.7	3.8
CCCn1c(=O)c2ccccc2n2c(SCC(=O)NCc3cccs3)nnc12	-3	·	·	·	-5	0.3	-0.6	·	0.7	·
CCN(CC(=O)Nc1ccc(NC(C)=O)cc1)C(=O)CN1C(=O)C2CCCCC2C1=O (centres undefined)	0	11	9	-1.0	·	0.4	1.9	i	0.62	-1.2
(more compounds)
SMILES	Beta apoptosis	Ecoli rRNA inh	Ecoli rRNA inh OD600	Ecoli rRNA inh RFP	T cruzi inh	A1 inh	UCH37 DUB inh	FGF22 binding	E coli growth	AF4-AF9 inh
Fc1ccccc1-c1[nH]ncc1-c1nnnn1-c1ccccc1	7	·	·	·	-21	-0.7	4.7	i	0.63	-4.6
NC(=O)c1ccc([N+](=O)[O-])cc1SCc1ccccc1	-6	·	·	·	-8	-0.7	-5.9	·	0.77	·
O=C(c1cccc(F)c1)n1nnc2ccccc21	-9	·	·	·	-4	0.9	1.1	·	0.71	·
CCC(CC)C(=O)c1c[nH]c(C(=O)NCc2ccncc2)c1	0	1	-2	-8.4	-20	0.3	4.7	i	0.67	-2.2
O=C(CC1SC(=Nc2ccccc2)N(CCO)C1=O)Nc1ccccc1 (centres undefined)	-5	-1	-7	0.4	-11	2.5	-0.6	i	0.69	-1.2
Cc1ccc(C)c(S(=O)(=O)N(C)Cc2cccs2)c1	-2	-48	-52	1.4	·	1.0	0.2	i	0.64	-3.2
CCSc1n[nH]c2nc3c(c(=O)n12)C1(CCCC1)Cc1ccccc1-3	-4	·	·	·	-15	0.0	-20	·	0.68	·
S=c1[nH]c2ccc(Cl)cc2s1	5	1	-17	-5.1	-9	-1.0	·	i	·	-2.7
O=C(Nc1cc(Cl)ccc1-n1cncn1)c1cc(F)c(F)c(F)c1F	·	-2	-1	-0.5	6	-1.0	2.8	·	0.71	-1.0
CC(C)(C)SCCNC(=O)/C=C/c1ccc(F)cc1	1	·	·	·	3	0.2	3.9	·	0.7	·
CC1CN(C(=O)c2cn3ccccc3n2)CC(C)O1 (centres undefined)	-6	·	·	·	-11	0.6	0.9	·	0.65	·
COc1ccc(Cl)cc1C(=O)NN=C1CCCC1	-6	7	9	0.9	-13	0.6	1.9	i	0.69	·
Cc1ccccc1NS(=O)(=O)c1cc(C(=O)Nc2cccc(N(C)S(C)(=O)=O)c2)ccc1C	-2	·	·	·	8	0.1	4.4	·	0.71	·
CN(C)S(=O)(=O)c1cccc(C(=O)NCc2cccs2)c1	-3	·	·	·	2	0.0	3.7	·	0.79	·
Cc1ccc(NC(=O)CSc2nc3ccccc3c(=O)n2CCCN2CCCCC2)cc1C	7	·	·	·	48	0.3	4.0	·	0.66	·
CC(Sc1nc(-c2ccccc2)cc(C(F)(F)F)n1)C(=O)NCc1ccco1 (centres undefined)	-3	·	·	·	33	0.5	1.8	·	0.75	·
CCCCC(=O)Nc1sc2c(c1C#N)CC(C)(C)OC2	-1	·	·	·	-26	0.4	2.5	·	·	·
C=CCn1c(=N)n(CC(O)COc2ccccc2OC)c2ccccc21 (centres undefined)	-4	1	-3	3.6	-22	1.4	2.9	i	0.77	0.8
NC(=O)COC(=O)c1cc(-c2cccs2)nn1-c1ccccc1	-4	11	9	-4.5	-7	0.2	0.6	i	0.7	-2.6
CCn1nc(C(=O)OC2CCOC2=O)c2ccccc2c1=O (centres undefined)	-3	·	·	·	-21	1.4	-3.3	·	0.73	·
O=C(CN1CCOCC1)NCC12CC3CC(CC(C3)C1)C2	-3	·	·	·	3	0.6	0.3	·	0.72	·
CCCCNC(=O)CSc1nc2ccccc2c(=O)n1Cc1ccc2c(c1)OCO2	0	·	·	·	-9	1.5	2.3	·	0.72	·
COC(=O)c1cc(-c2ccc(OC)cc2F)nc2nc(SC)[nH]c(=O)c12	-5	-4	11	-0.6	-10	-0.4	-207	i	0.72	-20
CC(C)(C)n1[nH]c2c3c(ccc2c1=O)C(=O)c1ccccc1C3=O	86*	·	·	·	1	-0.3	2.3	·	0.78	·
O=C(Nc1ccc(OCC(=O)N2CCOCC2)cc1)c1ccccc1Cl	-4	24	19	3.6	-9	0.4	0.0	i	0.68	-0.6
CC(C(=O)OCC(=O)Nc1cccc(S(=O)(=O)N2CCOCC2)c1)N1C(=O)c2ccccc2C1=O (centres undefined)	3	2	0	-3.5	2	0.0	0.6	i	0.68	-1.6
O=C(c1ccc2c(c1)OCO2)N1CCN=C1SCc1cccnc1	-1	6	2	0.1	-10	-0.2	7.3	i	0.71	3.0
O=C(Cn1cnc2c(cnn2-c2ccc(F)cc2)c1=O)N1CCN(c2ccccc2F)CC1	3	·	·	·	-7	-0.2	-0.3	·	0.68	·

Another view of 12 compounds above:
Molecule,Beta apoptosis,Ecoli rRNA inh,Ecoli rRNA inh OD600,Ecoli rRNA inh RFP,T cruzi inh,A1 inh,UCH37 DUB inh,FGF22 binding,E coli growth,AF4-AF9 inh
Fc1ccccc1-c1[nH]ncc1-c1nnnn1-c1ccccc1,7,·,·,·,-21,-0.7,4.7,i,0.63,-4.6
NC(=O)c1ccc([N+](=O)[O-])cc1SCc1ccccc1,-6,·,·,·,-8,-0.7,-5.9,·,0.77,·
O=C(c1cccc(F)c1)n1nnc2ccccc21,-9,·,·,·,-4,0.9,1.1,·,0.71,·
CCC(CC)C(=O)c1c[nH]c(C(=O)NCc2ccncc2)c1,0,1,-2,-8.4,-20,0.3,4.7,i,0.67,-2.2
O=C(CC1SC(=Nc2ccccc2)N(CCO)C1=O)Nc1ccccc1 (centres undefined),-5,-1,-7,0.4,-11,2.5,-0.6,i,0.69,-1.2
Cc1ccc(C)c(S(=O)(=O)N(C)Cc2cccs2)c1,-2,-48,-52,1.4,·,1.0,0.2,i,0.64,-3.2
CCSc1n[nH]c2nc3c(c(=O)n12)C1(CCCC1)Cc1ccccc1-3,-4,·,·,·,-15,0.0,-20,·,0.68,·
S=c1[nH]c2ccc(Cl)cc2s1,5,1,-17,-5.1,-9,-1.0,·,i,·,-2.7
O=C(Nc1cc(Cl)ccc1-n1cncn1)c1cc(F)c(F)c(F)c1F,·,-2,-1,-0.5,6,-1.0,2.8,·,0.71,-1.0
CC(C)(C)SCCNC(=O)/C=C/c1ccc(F)cc1,1,·,·,·,3,0.2,3.9,·,0.7,·
CC1CN(C(=O)c2cn3ccccc3n2)CC(C)O1 (centres undefined),-6,·,·,·,-11,0.6,0.9,·,0.65,·
COc1ccc(Cl)cc1C(=O)NN=C1CCCC1,-6,7,9,0.9,-13,0.6,1.9,i,0.69,·

An excerpt; rates above refer to the full screens.
